TRPML1 blocker: inhibitors of human TRPML1 channel. Q9GZU1. TRPML1-inducible cells, Ca2+ dye fluorescence, FDSS; stronger effect = lower value; inhibition of EC80 agonist-evoked calcium signal. activity change, negative = inhibition, % (no concentration beside the values). 390,000 compounds, 0.02% hits. AID 624415; in the data active means activity change below about -50%; inconclusive means about -30% to -50%; inactive means above about -30%;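 further: stimulus is agonist 54-4 at its EC80 concentration; on the % scale 0 is the no-effect control and ±100 the full control effect; compound concentration not given in the record; the text of the record puts the active cut at -80%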
Target sequence (Q9GZU1 whole entry, looked up): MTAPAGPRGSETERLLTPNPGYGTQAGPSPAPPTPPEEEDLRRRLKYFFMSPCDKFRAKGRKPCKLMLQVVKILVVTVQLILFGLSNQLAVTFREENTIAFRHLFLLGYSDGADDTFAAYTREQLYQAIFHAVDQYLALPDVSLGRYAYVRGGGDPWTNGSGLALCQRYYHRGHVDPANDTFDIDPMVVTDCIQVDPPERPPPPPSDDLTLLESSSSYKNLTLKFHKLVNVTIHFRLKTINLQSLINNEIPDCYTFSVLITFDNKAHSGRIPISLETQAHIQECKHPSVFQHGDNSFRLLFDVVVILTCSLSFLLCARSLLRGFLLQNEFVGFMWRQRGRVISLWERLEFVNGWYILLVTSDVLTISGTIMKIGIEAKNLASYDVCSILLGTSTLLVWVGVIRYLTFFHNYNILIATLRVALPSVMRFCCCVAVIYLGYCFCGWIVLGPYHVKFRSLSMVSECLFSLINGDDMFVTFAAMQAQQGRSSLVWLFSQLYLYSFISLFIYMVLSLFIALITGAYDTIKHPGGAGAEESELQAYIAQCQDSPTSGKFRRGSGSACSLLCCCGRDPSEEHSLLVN
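Calcium fluorescence in TRPML1-DL cells induced overnight with Tet: a 110 s read after compound pin addition, then a 110 s antagonist read after challenge with 54-4 at 4 uM final (EC80).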
gsp agonist: agonists of gsp mutant (McCune-Albright syndrome). gsp mutant cells, cAMP HTRF, 30 min; control for the full effect not named in the record. Potency, µM (highest dose often 76.9 µM), for inactives: at the highest dose activation (cAMP increase), most hits filed as activators. 340,000 compounds, 0.13% hits. AID 624287; active = well fitted activation curve with a large enough effect; inconclusive = small, poorly fitted or top-dose-only effect, or another doubt; inactive = no such curve, though single readings can be large or run the other way; cell line not stated here;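 further: phosphodiesterase inhibitor Ro 20-1724 added with compounds to block cAMP breakdown; potency means the concentration at half of the fitted maximal effect; nearly all actives have a fitted effect of over 60% in size; about a fifth of the inactives were tested at one dose only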
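Cells in DMEM/10% FBS with G418 were pretreated with compounds in DMSO plus […] (300 uM stock) for 30 min at 37C. cAMP was measured by HTRF (cAMP-d2 plus anti-cAMP antibody-K) after 30 min at room temperature.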
TRPML1 agonist: agonists of human TRPML1 channel; Q9GZU1; TRPML1-expressing cells, Ca2+ dye fluorescence, FDSS; host cell line not named in the record; reference of the full effect not given here; activation, % (concentration not given with the values); 410,000 compounds, 0.12% hits; in the data active = activation above about 50%; inconclusive = about 30% to 50%; inactive = below about 30%; further: 0% is about no effect; the text of the record puts the active cut at 80%
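Cells: TRPML1-DL, 1X Tet inducer, ~16 h at 37 degrees C/5% CO2. Dye: ABD Ca8 no-wash + quencher, 45-90 min RT. Read: 10 s baseline, compound add, 110 s agonist phase; 54-4 EC80 (4uM final), 110 s antagonist phase.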
Menin-MLL FL inh: displaces fluorescein MLL peptide from human menin; Fluorescence polarization, fluorescein-MLL peptide displacement from menin; FP activity change, % at 61.4 µM; 290,000 tested, under 10 active; inconclusive = falling polarisation curve, or a change in total fluorescence; inactive = total fluorescence flat and polarisation flat or rising; no compound was filed as active; the % refers to the polarisation; negative = inhibition;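 further: % of control where 0% means no effect; inhibitors lower the polarisation; unlabelled MLL peptide was the positive control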
gsp antagonist: antagonists of gsp mutant (McCune-Albright syndrome) | gsp-mutant cells, cAMP HTRF, 30 min; control for the full effect not named in the record | Potency, µM (highest dose often 76.9 µM), without a hit: at the top dose activity change, negative = inhibition, usual class: inhibitors | 340,000 compounds, 0.4% hits | AID 624288; active = falling curve of any shape with a large fitted effect; inconclusive = falling curve, mostly with a smaller effect; inactive = flat or rising curve; cell line not stated here;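 further: intracellular cAMP measured with PDE inhibitor Ro 20-1724 present during compound exposure; potency means the concentration at half of the fitted maximal effect; on the % scale 0 is the no-effect control and ±100 the full control effect; nearly all actives have a fitted effect of over 65% in size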
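G418-selected cells were plated in DMEM/10% FBS for 16-24 h at 37C, then treated with compounds plus the PDE inhibitor […] (300 uM solution added) for 30 min at 37C. Intracellular cAMP was measured by HTRF after 30 min lysis at room temperature.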
ClpP mod: qHTS Assay for Activators of ClpP | ATP-dependent Clp protease proteolytic subunit (Bacillus subtilis (strain 168)), P80244 | Potency, µM (highest dose often 57.5 µM), inactives show at the top dose activity change, negative = active | purified B. subtilis ClpP, FRET peptide cleavage, 20 min | 340,000 compounds, 1.9% hits; active = well fitted falling curve with a large enough effect; inconclusive = small, poorly fitted or top-dose-only effect; inactive = no such curve, though single readings can be large or run the other way; further: potency means the concentration at half of the fitted maximal effect; the source files actives as falling curves though it sought activators and does not explain the sign; nearly all actives have a fitted effect of over 65% in size; many hits overshoot -100%
Target sequence (P80244 whole entry, looked up): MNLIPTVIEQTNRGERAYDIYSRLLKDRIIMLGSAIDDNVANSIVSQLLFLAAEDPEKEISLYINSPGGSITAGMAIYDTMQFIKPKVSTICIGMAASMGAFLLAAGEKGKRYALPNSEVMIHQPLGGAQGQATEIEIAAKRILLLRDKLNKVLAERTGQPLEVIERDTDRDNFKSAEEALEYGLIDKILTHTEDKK
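ClpP 10 microg/mL final, pH 8 Tris/KCl buffer with BSA, glycerol, Tween-20; compound pinned in; FRET-FV substrate; RT 20 min; Ex320/Em430; ΔFRET vs ADEP 5.8 microM, DMSO, no enzyme.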
Active calls of the source: *; ? = inconclusive; / = not tested or not shown; & = joins results of further samples; [ ] = another dose, or the depositor's remark. Hits appear at their usual frequency. Share with any hit: about 2.1%.

SMILES | TRPML1 blocker | gsp agonist | TRPML1 agonist | Menin-MLL FL inh | gsp antagonist | ClpP mod
CCC(C)NC(=O)C1CCN(S(=O)(=O)c2cccs2)CC1 (centres undefined) | 3.4 | 1.8% | -0.7 | 0.3 | -0.2% | 3.0%
O=C(Cn1cnc2scc(-c3cccc([N+](=O)[O-])c3)c2c1=O)NCc1ccco1 | -7.8 | -0.4%[15.4 µM] | 3.0 | 2.0 | -11.7% | /
CC(CCc1ccccc1)NC(=O)CN(C)Cc1ccccc1F (centres undefined) | -18.6 | ? | 1.3 | 4.0 | -1.7% | -0.9%
CC(C)CNC(=O)NC(=O)COC(=O)c1cc(F)cc(F)c1 | 42.3 | 3.4% | -1.0 | 5.5 | 3.6% | 2.9%
Cc1ccc(C)c(S(=O)(=O)Nc2ccc(O)c(Sc3ncn[nH]3)c2)c1 | / | -5.9% | / | -0.1 | 1.8% | 0.1%
COc1ccc(C2(O)CCN(CC(=O)Nc3nc(-c4ccccc4)cs3)CC2)cc1 | 3.3 | -9.0% | 0.6 | -1.9 | -9.3% | -0.7%
Nc1ncc(Br)cc1S(=O)(=O)NCCC(=O)NC1CCCCC1 | 13.8 | -1.9% | 0.2 | / | 11.3% | -23.2%
COc1ccc(CNC(=O)CN(Cc2ccco2)C(=O)CCC(=O)Nc2ccccn2)cc1 | -7.4 | -0.8%[15.4 µM] | 0.0 | -9.4 | -12.7% | /
C[C@@H]1CN([C@H](C)CO)C(=O)CCCn2nncc2CO[C@@H]1CN(C)S(=O)(=O)c1cn(C)cn1 | 8.6 | ? | 0.4 | / | / | -1.4%
NC1=NC(=O)/C(=C\c2cccs2)S1 | -10.0 | -16.0% | 0.2 | 4.1 | -7.3% | -2.8%
COC1=C(NCc2ccc3c(c2)OCO3)C(=O)C(OC)=C(NCc2ccc3c(c2)OCO3)C1=O | -6.9 | -28.8% | 0.0 | / | 12.6% | 0.7%
COc1ccc(NC(=S)N(CCN2CCOCC2)Cc2ccccc2F)cc1 | 1.2 | -5.8%[15.4 µM] | -0.1 | -1.3 | -5.3% | /
CC1=Nc2cc(C(=O)N3CCCC3)ccc2Sc2c(C)ccc(C)c21 | -7.2 | 22.2% | 1.5 | -1.3 | -1.7% | -0.5%
COc1ccc(NC(=S)Nc2ccc3cn[nH]c3c2)cc1 | / | 14.7% | / | -5.2 | -6.0% | -11.1%
O=C(COc1ccc(-c2nnco2)cc1)NCc1ccccc1Cl | -10.9 | 2.2%[15.4 µM] | -0.4 | -1.0 | -3.0% | -27.1%
COc1ccc(Cc2nc3ccc(C(=O)N(C)CCO)cc3o2)cc1 | -10.3 | -50.9% | -0.1 | 1.4 | 3.6% | /
COC(=O)c1ccc(OCC2c3cc(OC)c(OC)cc3CCN2C(=O)COc2ccc(Cl)cc2)cc1 (centres undefined) | 8.7 | / | 0.4 | / | / | -0.5%
O=[N+]([O-])c1cccc(-c2noc(-c3cccs3)n2)c1 | -0.6 | 4.7% | 0.9 | 0.6 | 1.7% | 0.7%
Cn1nnnc1SCCNC(=O)C1CCC(=O)N(CCc2cccc(F)c2)C1 (centres undefined) | -3.5 | 22.6% | -1.2 | -5.7 | 3.5% | -0.3%
COc1ccc(C=O)cc1CN1CCCN(Cc2ccccc2F)S1(=O)=O | 4.2 | 5.8% | 3.0 | -3.8 | -15.6% | /
O=C(/C=C/c1ccc(Cl)cc1)NC(=S)Nc1ccc(NC(=O)c2ccco2)cc1 | 1.7 | ? | 0.1 | 2.6 | 2.6% | -2.0%
COc1nnc(-c2ccc(N3CCCCC3)c(NC(=O)c3ccc(C)cc3)c2)c2ccccc12 | 1.9 | / | -0.5 | / | / | -2.7%
Cc1ccc(C)c(CNc2ccc(S(=O)(=O)N3CCCCC3)cc2)c1 | 50.9 | -12.6% | 2.2 | / | -9.0% | -17.1%
Cc1ccc(NC(=O)CCS(=O)(=O)c2cc3c(cc2Cl)NC(=O)CO3)cc1 | -8.1 | -1.7% | 0.1 | / | -5.2% | -1.3%
CC(=O)/C(N=Nc1cccc(C(F)(F)F)c1)=C(\C)O | 2.7 | -25.2% | 0.6 | 1.9 | -9.7% | /

Continuation:
SMILES | TRPML1 blocker | gsp agonist | TRPML1 agonist | Menin-MLL FL inh | gsp antagonist | ClpP mod
CC1(C)Cc2c(sc(NC(=O)C3CC(Cl)=CCC3C(=O)O)c2C#N)CO1 (centres undefined) | 7.0 | -4.6% | 0.0 | 0.0 | 5.5% | /
CCn1nc(C(C)C(=O)O)c2ccccc2c1=O (centres undefined) | 25.7 | -3.0% | 0.7 | -2.8 | 12.5% | /
CC1CN(C(=O)Cc2ccc(-c3ccccc3)cc2)CC(C)O1 (centres undefined) | 1.4 | -7.4% | -0.3 | 2.0 | -7.9% | 0.7%
CC(C)C(C(=O)Nc1ccc(N2CCOCC2)cc1)N1C(=O)c2ccccc2C1=O (centres undefined) | 43.8 | 7.9% | 0.7 | -5.0 | -0.5% | 0.4%
CCOc1ccc(N2CC(C(=O)Nc3c(C)n(C)n(-c4ccccc4)c3=O)CC2=O)cc1 (centres undefined) | 63.5 | 1.6%[15.4 µM] | -0.2 | 0.0 | 10.3% | /
CCOc1cc(C(=O)N2CCN(C/C=C/c3ccccc3)CC2)cc(OCC)c1OCC | -8.4 | -4.9% | 0.3 | 3.3 | 7.0% | -0.1%
CC1=C(C#N)C(c2cccnc2)C2=C(N1)c1ccccc1C2=O (centres undefined) | -0.5 | -15.8%[15.4 µM] | -0.5 | 5.1 | 0.0% | 0.1%
O=C1C2C3C=CC(O3)C2C(=O)N1Nc1ccccc1 (centres undefined) | -13.3 | -28.3% | 0.8 | / | 3.0% | /
Cc1cc(-c2ccccc2)nc2cc(C(=O)NCCCn3ccnc3)nn12 | -12.2 | 4.3% | -0.4 | 2.2 | -8.5% | -21.1%
CN(C)CCCn1cnc2c1c(=O)[nH]c(=O)n2Cc1ccccc1 | 4.8 | 9.5% | 0.0 | -16.5 | 4.6% | -2.2%
CC(=O)Nc1ccc(S(=O)(=O)NN=CCCc2ccccc2)cc1 | -2.6 | 15.2% | -0.5 | / | 0.1% | /
Cc1noc(C)c1CSc1ncnc2sc3c(c12)CCCCC3 | -11.9 | -9.1% | 0.6 | 6.7 | -5.9% | -1.5%
Cn1ncc(Br)c1C(=O)Nc1ccc(Br)cn1 | -9.2 | 36.3% | 1.3 | 8.5 | 4.2% | -0.8%
CN(C(=O)c1ccc(NC(=O)Cc2cccc(NC(=O)C3CCCN(C(=O)CCc4ccccc4)C3)c2)cc1)C1CC1 (centres undefined) | 0.1 | / | 0.2 | / | 1.5% | 1.7%
CC1Oc2ccccc2N(CC(=O)NCCc2ccccc2)C1=O (centres undefined) | 37.2 | 0.5% | 0.1 | 0.4 | 7.3% | -1.4%
CNC(=O)C[C@@H]1C(=O)N(c2ccc(OC)cc2)CC1(C)C | 3.9 | -51.1%[inhibitor] | -0.3 | / | / | -0.7%
COC(=O)c1ccc(Sc2ccc(F)cc2)c(N)c1 | -4.4 | -14.8% | 1.9 | -1.0 | -2.7% | 28.2µM*
COc1ccc(C(=O)NCCc2cn3ccc(C)cc3n2)cc1 | 0.3 | -47.0%[inhibitor] | -0.2 | 3.3 | 4.7% | 4.0%
O=C(O)c1ccc(-c2nc3ccccc3[nH]2)cc1 | -3.8 | 0.8% | 0.2 | 2.3 | 7.7% | -36.1%
O=C(Cn1cnc2c(nnn2Cc2ccc(Cl)cc2)c1=O)NCc1ccco1 | 17.0 | -13.8% | 3.2 | -1.9 | 1.9% | -1.9%
NC(=O)CS(=O)(=O)c1nc2ccccc2n1CC(=O)N1CCCCC1 | 7.6 | ? | 0.0 | -3.4 | 3.5% | -0.9%
CCCN(C(=O)CCNC(=O)Cn1cnc2ccccc2c1=O)c1cccc(C)c1 | -7.7&-2.8 | 16.7%[15.4 µM] | 2.0&0.3 | -0.5 | 8.1% | 0.6%
O=C(CN1CCN(c2nc(-c3ccc(F)cc3)cs2)CC1)Nc1ccc2c(c1)OCO2 | 4.0 | -7.3% | 0.4 | -2.5 | -7.4% | -2.8%
O=c1cnnc(N/N=C/c2cccs2)[nH]1 | 34.2 | 22.0% | 0.3 | 6.1 | -5.7% | -2.5%
COc1cc(NC(=O)CCn2c(=S)oc3ccccc32)cc(OC)c1OC | 4.9 | -4.8%[15.4 µM] | -0.3 | 0.4 | -2.0% | /

Carrying on:
SMILES | TRPML1 blocker | gsp agonist | TRPML1 agonist | Menin-MLL FL inh | gsp antagonist | ClpP mod
C[C@]12CC[C@@H]3c4ccc(O)cc4CC[C@H]3[C@@H]1CCC2=O | 15.7 | / | -0.8 | 6.3&2.9 | -1.1% | 1.1%
Cc1c(CN(C)C(=O)/C=C/c2ccc([N+](=O)[O-])cc2)cnn1C | -3.6 | -2.2% | -0.8 | 3.5 | -23.2% | 1.7%
COc1ccc(CCN2C(=O)CC(NNC(=O)c3ccccc3Br)C2=O)cc1OC (centres undefined) | -4.6 | 4.5% | -0.9 | 7.8 | -9.9% | 0.8%
COc1ccc(OC)c(NC(=O)CCN2CCN(CCO)CC2)c1 | / | 0.4% | / | -2.4 | 2.5% | -2.1%
NCC(=O)c1cccc2ccc[n+]([O-])c12 | 6.1 | 4.7% | 1.4 | 3.6 | 9.5% | -1.7%
COc1cccc(CSCC(=O)NCCc2ccccc2)c1OC | -12.0 | -11.3% | 1.1 | -1.7 | 4.0% | /
Cc1ccc(NC(=O)CN(C)C2CCCCC2)cc1Cl | 8.8 | ? | -0.4 | 2.6 | 6.2% | /
CCCCNC(=O)CSc1nc2n[nH]c(C)c2c(=N)n1-c1cccc(Cl)c1C | 5.8&10.0 | 29.0% | 1.8&2.4 | -0.5 | 32.7% | -20.8%&-10.9%
NC(=O)C1CCN(C(=O)c2cc3ccccn3n2)CC1 | -2.1 | -40.0% | -0.7 | 4.9 | 8.6% | -6.1%
CCCNC(=O)N1CCN(c2ncccn2)CC1 | 7.0 | -5.4% | -0.4 | 2.4 | 2.6% | -0.3%
CC(=O)c1cc2c(cc1NC(=O)CN(C)S(=O)(=O)c1cccs1)OCO2 | 18.5 | -24.7% | 1.8 | / | -14.2% | -23.4%
CC(c1ccco1)N(C(=O)CSc1ccc(Br)cc1)c1ccccn1 (centres undefined) | 28.9 | -5.9% | 1.1 | 3.4 | 35.5µM* | -2.6%

Source: PubChem BioAssay
